Screens as filed in PubChem BioAssay.
MARV entry inh: inhibitors of Marburg virus binding or cell entry. Marburg virus pseudotyped entry inhibition, cell reporter; control for the full effect not named in the record; about a third of the inactives were read at about 46 µM. Potency, µM (top dose mostly 37.8 µM), without a hit: at the top dose activity change, negative = inhibition, most hits filed as inhibitors. 300,000 compounds, 1.8% hits. AID 540276; active = well fitted inhibition curve with a large enough effect; inconclusive = small, poorly fitted or top-dose-only effect, or effect the other way; inactive = flat fitted curve, though single readings scatter; tested in HEK293 cells; about a fifth of its hits are not listed in these tables; note: % is set by controls: 0 for no effect and ±100 for the full control effect; luciferase read-out
Lassa entry inh: inhibitors of Lassa virus binding or cell entry. Lassa virus pseudotype entry inhibition, cell reporter; control for the full effect not named in the record. Potency, µM (top dose mostly 37.9 µM), inactives show top-dose activity change, negative = inhibition, actives largely listed as inhibitors. 300,000 compounds, 1.2% hits. AID 540256; active means well fitted inhibition curve with a large enough effect; inconclusive means small, poorly fitted or top-dose-only effect, or effect the other way; inactive means flat fitted curve, though single readings scatter; tested in HEK293 cells; note: % is set by controls: 0 for no effect and ±100 for the full control effect; nearly all actives have a fitted effect of over 50% in size; luciferase read-out
RE007 growth inh: less growth of the S. pombe RE007 Vpr strain; S. pombe RE007 Vpr strain, BacTiter-Glo ATP luminescence, 24 h; control for the full effect not named in the record; Potency, µM (series often up to 92.2 µM), for the others: at the top dose activity change, negative = less growth; 360,000 compounds, 0.21% hits; AID 651644; active = well fitted falling curve with a large enough effect; inconclusive = small, poorly fitted or top-dose-only effect; inactive = no such curve, though single readings can be large or run the other way;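 note: % is set by controls: 0 for no effect and ±100 for the full control effect; nearly all actives have a fitted effect of over 50% in size; the assay follows cell death caused by Vpr and the record does not say whether a fall means rescue or toxicity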
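Fission yeast strain RE007, carrying one chromosomally integrated HIV-1 vpr copy, was seeded at OD 0.01 in PMG+AL medium with 23 nL pinned compound. After 24 h at 30 °C and 99% humidity, viability was read by BacTiter-Glo luminescence.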
SARS PLpro yeast: blocks SARS-CoV papain-like protease in a yeast assay. S. cerevisiae expressing SARS-CoV PLpro, growth rescue; control for the full effect not named in the record. Potency, µM (top dose mostly 32.9 µM), without a hit: at the top dose activity, positive = growth rescue. 330,000 compounds, 0.19% hits; note: 0% is about no effect; nearly all actives have a fitted effect of over 55% in size; growth read by luminescence after 48 h
NS1 function inh: influenza NS1 inhibition | S. cerevisiae slowed by influenza A NS1, growth recovery by OD600 | Potency, µM (top dose mostly 46.1 µM), inactives show top-dose activity, positive = more growth | 270,000 compounds, 0.4% hits | AID 2326; note: actives are rising curves; nearly all actives have a fitted effect of over 50% in size
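In this qHTS, NS1 from influenza A is expressed in budding yeast, where it slows growth. Cells are switched from glucose to 2% galactose medium (pH 6.0, -URA), treated with compound, and growth recovery is read at OD600.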
2A StopGo: FMDV 2A StopGo reporter, luciferase signal | human cells with a luciferase reporter of 2A StopGo recoding; control for the full effect not named in the record | Potency, µM (series often up to 57.9 µM), inactives show at the top dose signal change, negative = less light | 410,000 compounds, 1.2% hits | AID 1159524; active = well fitted falling curve with a large enough effect; inconclusive = small, poorly fitted or top-dose-only effect; inactive = no such curve, though single readings can be large or run the other way; tested in HEK293T cells; note: % is set by controls: 0 for no effect and ±100 for the full control effect; nearly all actives have a fitted effect of over 45% in size; luciferase light after 4 h
Cruzain noTriton: inhibitors of Trypanosoma cruzi cruzain without detergent; P25779; purified cruzain, Z-FR-AMC fluorescence, no detergent; Potency, µM, for the others: max response, negative = inhibition, usual class: inhibitors; 200,000 compounds, 2.3% hits; active = well fitted curve in the direction sought with a large enough effect; inconclusive = small, poorly fitted or top-dose-only effect, or another doubt; inactive = no such curve, though single readings can be large; an effect the other way counts as inactive or inconclusive;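 note: plate controls were enzyme without inhibitor for no effect and buffer without enzyme for full effect; nearly all actives have a fitted effect of over 40% in size; top concentration of the series not given in the record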
Target sequence (P25779 123-467 limits assumed): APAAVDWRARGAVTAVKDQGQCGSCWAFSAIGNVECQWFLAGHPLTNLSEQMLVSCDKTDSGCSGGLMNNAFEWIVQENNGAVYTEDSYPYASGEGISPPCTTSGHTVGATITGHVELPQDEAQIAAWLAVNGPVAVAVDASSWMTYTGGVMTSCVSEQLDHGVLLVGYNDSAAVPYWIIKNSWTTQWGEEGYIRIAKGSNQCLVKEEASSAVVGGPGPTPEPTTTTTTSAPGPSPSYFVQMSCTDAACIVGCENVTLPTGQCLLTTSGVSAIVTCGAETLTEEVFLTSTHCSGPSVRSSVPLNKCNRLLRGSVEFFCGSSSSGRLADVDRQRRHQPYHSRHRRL
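Detergent-free condition (0.00005% Triton X-100) in acetate buffer pH 5.5 with DTT. 1.5 nM enzyme and compound were pre-mixed 15 min, then 2 uM Z-FR-AMC substrate added; reaction progress from fluorescence change between first and third reads (60 s).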
Cruzain inh Det: inhibitors of Trypanosoma cruzi cruzain with detergent; purified cruzain, Z-FR-AMC fluorescence, 0.01% Triton; AID 1478; Potency, µM, without a hit: max response, negative = inhibition, hits mostly inhibitors; 200,000 compounds, 0.43% hits; P25779; active = well fitted curve in the direction sought with a large enough effect; inconclusive = small, poorly fitted or top-dose-only effect, or another doubt; inactive = no such curve, though single readings can be large; an effect the other way counts as inactive or inconclusive;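 note: plate controls were neutral wells for no effect and buffer without enzyme for full effect; nearly all actives have a fitted effect of over 40% in size; top concentration of the series not given in the record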
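Read-out: AMC fluorescence (360 nm excitation, 450 nm emission), four reads over 2 min, first-to-third difference used. Conditions: cruzain 1.5 nM, Z-FR-AMC 2 uM, pH 5.5 acetate, 5 mM DTT, 0.01% Triton X-100.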
Numbers without * were called inactive; ? = inconclusive; · = no result given; & = joins results of further samples; [ ] = another dose, or the depositor's remark. Unless noted, calls come from the whole dose curve; as a rule, active means well fitted rising curve with a large enough effect; inconclusive means small, poorly fitted or top-dose-only effect; inactive means no such curve, though single readings can be large or run the other way. Potency is the fitted concentration of half-maximal effect.

Structure	MARV entry inh	Lassa entry inh	RE007 growth inh	SARS PLpro yeast	NS1 function inh	2A StopGo	Cruzain noTriton	Cruzain inh Det
O=C(Nc1cc(=O)[nH]c2ncnn12)c1ccco1	·	·	21%	1%	2%	-14%	·	·
COCCN(CCOC)S(=O)(=O)c1ccc(/C(O)=C(\C#N)c2nc3ccccc3[nH]2)cc1	-6%[46.1 µM]	8%[46.1 µM]	1%	0%	·	?	·	·
COc1ccc(C2=C(C)C(=NCCCN3CCN(c4cc(C)ccc4C)CC3)NS2(=O)=O)cc1	-20%[46.1 µM]	-13%[46.1 µM]	·	·	·	-1%	-22%	-4.5%
O=C(CCCOc1ccc(Cl)cc1)N1CCOCC1	?	11%	1%	-4%	11µM*	19%	5%	5.1%
COc1ccc(OCCNc2cc(Cl)ccc2[N+](=O)[O-])cc1	1%	4%	14%	3%	7%	·	-6%	-1.4%
O=C(NCC(c1cccs1)N1CCOCC1)C1CCN(S(=O)(=O)c2ccccc2C(F)(F)F)CC1 (centres undefined)	·	·	-9%	-2%	-8%	1%	·	·
Cc1ccc(NCC(=O)N/N=C/c2ccncc2)cc1	14%[46.1 µM]	2%	-27%	-2%	-3%	25%	·	·
Cc1ccc(NC(=O)C2CCCN2S(=O)(=O)c2cccc3cccnc23)cc1F (centres undefined)	-23%&-23%	0%	-8%	-9%	-40%	-8%	-2%	-3.0%
Cc1cccc(NC(=O)CSc2nnc(NC(=O)Nc3ccccc3)s2)c1C	·	11%[46.1 µM]	·	·	·	-2%	-6%	-0.3%
COc1ccc([N+](=O)[O-])cc1CSc1nnc(NC(C)=O)s1	8%	9%	-4%	-1%	·	-12%	·	·
O=C(Cc1ccccc1)Nc1ccc(NC(=S)NC(=O)c2ccccc2)cc1	15%	-12%	-2%	-6%	6%	-13%	·	·
Cc1nnc(N(C)C(=O)c2cnccn2)s1	9%[46.1 µM]	?	52%	0%	3%	-4%	·	·

Going on with the list:
Structure	MARV entry inh	Lassa entry inh	RE007 growth inh	SARS PLpro yeast	NS1 function inh	2A StopGo	Cruzain noTriton	Cruzain inh Det
CN(CC(=O)OCC(=O)NC(=O)c1cccn1C)S(=O)(=O)c1ccc(Cl)cc1	-2%	0%	16%	-2%	7%	0%	-10%	-4.7%
Cc1ccc(NC(=O)CNC(=O)c2ccc(C)o2)cc1	·	·	4%	-2%	-15%	14%	·	·
CCNS(=O)(=O)c1ccc(NC(=O)Cc2ccc(F)cc2)cc1	19%	-26%	-2%	2%	-35%	·	-4%	3.1%
Cc1cccc(C)c1N1C(=O)CCC(C)(C)C1=O	1%	·	-1%	0%	4%	-17%	·	·
CCC(=O)Nc1sc(C(=O)Nc2ccccc2OC)c(C)c1C(=O)OC	0%[46.1 µM]	-13%[46.1 µM]	-1%	1%	-3%	-12%	·	·
CCCN1CCN(CCNC(=O)Nc2cc(C)ccc2OC)CC1	-25%[46.1 µM]	24%[46.1 µM]	·	·	·	-21%	2%	2.2%
CCCNC(=O)c1c2c(nc3ccccc13)C(=O)N(C1CCCCC1)C2	·	-4%[46.1 µM]	·	·	·	-17%	20%	-0.8%
Cc1nnc(SCC(=O)N2CCCc3ccccc32)[nH]c1=O	-1%	-13%	13%	-10%	8%	21%	1%	4.0%
N#Cc1ccc(CSc2nnc(-c3ccncc3)n2CCc2ccccc2)cc1	-1%	9%	0%	-2%	-3%	-30%	0%	4.6%
CCN1C(=O)/C(=C\c2ccc3c(c2)OCO3)C(C(=O)OC)=C1C	16%	12%	6%	-8%	-18%	?	-1%	-3.0%
Cc1cc(NC(=O)NC(=O)c2cccc(OC(F)(F)C(F)F)c2)n[nH]1	11%	11%	2%	3%	7%	38%[activator]	?	3.7%
O=C(NCCCN1CCOCC1)c1cn(-c2ccccc2)nc1-c1ccc(F)cc1	?	21%	-7%	-3%	·	-19%	·	·

The list continues.
Structure	MARV entry inh	Lassa entry inh	RE007 growth inh	SARS PLpro yeast	NS1 function inh	2A StopGo	Cruzain noTriton	Cruzain inh Det
CC(C)(C)NS(=O)(=O)c1ccc(NS(=O)(=O)Cc2ccccc2)cc1	5%	17%	5%	-9%	-2%	-6%	-11%	-0.3%
CC(=O)Nc1ccccc1C(=O)C(=O)NCCc1ccccc1	?	?	-6%	-1%	·	11%	·	·
CCOC(=O)c1ccc(NC(=S)NNC(=O)c2cc(-c3cccnc3)nc3ccccc23)cc1	·	·	-1%	3%	8%	-16%	·	·
Cc1ccc(-c2noc(-c3cc(C(C)(C)C)nn3Cc3ccccc3)n2)cc1	·	·	-6%	-1%	6%	-6%	·	·
Cc1ccc(S(=O)(=O)N2CCN(C(=O)CN3CCN(C)CC3)C2)cc1	22%	11%	-2%	0%	2%	·	0%	0.8%
O=C(N/N=C/c1cccc(OCc2ccccc2)c1)c1ccc(Br)o1	?	?	-3%	-11%	-38%	14%	·	·
CC[N+](C)(CC)CCCCOc1ccc2c(c1)C(=O)c1cc(OCCCC[N+](C)(CC)CC)ccc1-2	·	·	?	0%	-1%	-16%	·	·
CCCCOC(=O)c1ccc(NC(=O)c2ccc3c(c2)CCCN3S(C)(=O)=O)cc1	?	?	·	·	·	?	4%	1.0%
O=C(COc1ccc([N+](=O)[O-])cc1)N1CCC(c2nc3ccccc3s2)CC1	?	0%[46.1 µM]	·	·	·	?	-3%	-11%
CC(C)(C)NC(=O)C(=O)NCCC1=CCCCC1	?	3%	14%	5%	-8%	0%	8%	-3.0%
Cc1cccc(NC(=O)CC2NCCNC2=O)c1 (centres undefined)	6%	0%	30%	11%	9%	19%	2%	5.7%
O=C(c1ccc(Cl)s1)N1CCN(C23CC4CC(CC(C4)C2)C3)CC1	25%	5%	6%	-4%	11%	4%	·	·

Remaining list, next part
Structure	MARV entry inh	Lassa entry inh	RE007 growth inh	SARS PLpro yeast	NS1 function inh	2A StopGo	Cruzain noTriton	Cruzain inh Det
CC(C)(C)NC(=O)C1CCN(c2ccc(S(=O)(=O)N3CCOCC3)cc2Cl)CC1	18%	3%	-2%	1%	2%	-16%	·	·
CCc1ccc(/C=C\C(=O)N2CCCC2)cc1	?	15%[46.1 µM]	4%	·	·	34%[activator]	·	·
CC(C)OC(=O)c1cn(-c2ccccc2)nc1-c1ccc2c(c1)OCCO2	?	-6%	-16%	8%[6.58 µM]	15%	-25%	8%	-1.7%
CSc1ccccc1NC(=O)c1noc(C)c1[N+](=O)[O-]	·	·	-4%	-5%	5%	25%	·	·
O=[N+]([O-])c1ccc(O)c(P(=O)(c2ccccc2)c2ccccc2)c1	2%[46.1 µM]	0%[46.1 µM]	1%	-2%	-1%	0%	·	·
CCOC(=O)c1cccc(NC(=O)C2CCCO2)c1 (centres undefined)	-7%	2%	6%	-3%	-3%	-7%	-5%	6.4%
COc1ccc(NS(=O)(=O)c2ccc(NC(=S)NC(=O)/C=C/c3ccccc3)cc2)nn1	2%	-18%	3%	-2%	-1%	4%	32µM*	-13%
CC(C)C(=O)Nc1nc2c(c(=O)[nH]1)CCCC2	3%[46.1 µM]	-3%	9%	0%	·	-4%	·	·
Cc1cccc(NC(=O)CSc2nc3ccc(NC(=O)c4cccs4)cc3s2)c1	5%[46.1 µM]	1%[46.1 µM]	·	·	·	-1%	-18%	-2.8%
Cc1c(Cl)cccc1NC(=O)C1=COCCO1	?	-1%	-4%	-2%	·	0%	·	·
CC(=O)NC1=NN(C(C)=O)C(C)(CS(=O)(=O)c2ccc(C)c(C)c2)S1 (centres undefined)	22%	8%	-5%	0%	6%	·	-1%	2.4%
CC(C)n1cc(CN2CCCC(C(=O)Nc3ccccc3Oc3cccnc3)C2)cn1 (centres undefined)	6%[46.1 µM]	-2%	1%	1%	11%	-5%	·	·

Next records
Structure	MARV entry inh	Lassa entry inh	RE007 growth inh	SARS PLpro yeast	NS1 function inh	2A StopGo	Cruzain noTriton	Cruzain inh Det
Cc1cccc(-c2cc(-c3ccccc3)nc(SCC(=O)Nc3ccccc3)c2C#N)c1	-19%[46.1 µM]	-21%[46.1 µM]	·	·	·	-23%	12%	1.1%
O=C(COC(=O)c1cc(Cl)ccc1O)c1ccc2c(c1)OCO2	?	-1%	-26%	2%	·	18%	·	·
COCC(=O)N1CCCC(CNS(=O)(=O)c2ccc(OC)cc2)C1 (centres undefined)	13%[46.1 µM]	-1%[46.1 µM]	-5%	-1%	-3%	2%	·	·
COc1ccc(S(=O)(=O)NCc2nc3nc(C)cc(C)n3n2)cc1	28%[46.1 µM]	3%[46.1 µM]	10%	·	·	0%&-17%	4%	-0.1%
Cc1nc2c(C(=O)N3CCN(c4ccccn4)CC3)cnn2c(C)c1Cc1cccc(Cl)c1	3%&-2%	-2%	3%	-6%	-90%	-15%	?	1.4%
CC(C)NC(=O)C1(S(=O)(=O)c2ccccc2)CC=CC1	·	·	-7%	5%	3%	-2%	·	·
CC(=O)c1cnc2c(-c3ccccc3)c(C(F)(F)F)nn2c1C	-14%[46.1 µM]	?	-11%	3%	3%	?	·	·
CCN(CC)S(=O)(=O)c1ccc2c(c1)N(CC(=O)NCCCN1CCN(c3ccccc3F)CC1)C(=O)CO2	?	2%[46.1 µM]	·	·	·	-3%	8%	0.7%
COC(=O)[C@H](C)NC(=O)Nc1ccc(OC)c(OC)c1	-12%	12%	7%	0%	-6%	0%	3%	4.1%
COC(=O)C1=CN(Cc2ccc(OC)c(OC)c2)C=C(C(=O)OC)C1c1ccc(O)cc1	·	·	4%	-7%	-4%	-6%	·	·
COc1ccc(-c2cc(C(F)(F)F)n3nc(-c4ccccc4)cc3n2)cc1OC	2%[46.1 µM]	0%[46.1 µM]	·	·	·	-20%	?	-1.4%

An unsorted share of the library, and some 4.5% of all compounds hit somewhere here.
